Mtb growth = M. tuberculosis H37Rv growth inhibitors, H37Rv strain (AID 1626); M. tuberculosis H37Rv growth inhibition; higher % means a stronger effect; 220,000 tested, 0.95% active; inhibition, % at 10 µM, or IC50 in µM where a hit was titrated;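 active means confirmed in a dose series; inconclusive means inhibition above 80% but not taken into the dose series; inactive means below 80% or under 30% at every dose of the series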;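 further: bacteria incubated seven days before Alamar blue readout; 0% = bacteria only wells and 100% = bacteria with antibiotic wells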
Arbovirus anti = antivirals against arbovirus infection; arbovirus infection cell-based antiviral screen; inhibition, % at 10 µM; 200,000 tested, 0.37% active; AID 1251;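 active means inhibition from about 30%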;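 further: bluetongue infection of BSR cells; cell survival read as ATP light after 72 h; 0% = infected wells without compound and 100% = uninfected wells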
Mtb betalactam = beta-lactam sensitization of Mtb H37Rv; M. tuberculosis H37Rv growth with meropenem, percent inhibition; hits of this screen are not shown here; inhibition, % at 25 µM; 330,000 tested, 0.27% active;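 active means about 74% or more and at least 40 points above the plate without the antibiotic, then above 30% in a dose series; inconclusive means first-round hits that could not be retested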;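 further: growth measured after seven days incubation then overnight dye step; 0% = bacteria only wells and 100% = bacteria with antibiotic; twin plates without the antibiotic show which effects depend on it; some results filed as inactive read as strong as hits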
YopH inh = inhibitors of Yersinia enterocolitica YopH tyrosine phosphatase. 140,000 tested, 0.16% active. inhibition, %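 (about 10 µM by stock and volumes)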. fluorescence Ex485/Em525. AID 898;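 active means inhibition of 50% or more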;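 further: controls were vehicle for no effect and minimum signal wells for full effect; inactives centre near -20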
RecA intein inh = inhibitors of M. tuberculosis RecA intein splicing; P9WHJ3; cell-free RecA intein splicing, fluorescence; inhibition, %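 (about 9 µM by stock and volumes)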; 290,000 tested, 0.75% active; in the data active means inhibition above about 30%; inconclusive means no clear call, values can overlap the other calls;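 further: 0% = vehicle wells and 100% = reference inhibitor control wells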
Target sequence (P9WHJ3 whole entry, looked up): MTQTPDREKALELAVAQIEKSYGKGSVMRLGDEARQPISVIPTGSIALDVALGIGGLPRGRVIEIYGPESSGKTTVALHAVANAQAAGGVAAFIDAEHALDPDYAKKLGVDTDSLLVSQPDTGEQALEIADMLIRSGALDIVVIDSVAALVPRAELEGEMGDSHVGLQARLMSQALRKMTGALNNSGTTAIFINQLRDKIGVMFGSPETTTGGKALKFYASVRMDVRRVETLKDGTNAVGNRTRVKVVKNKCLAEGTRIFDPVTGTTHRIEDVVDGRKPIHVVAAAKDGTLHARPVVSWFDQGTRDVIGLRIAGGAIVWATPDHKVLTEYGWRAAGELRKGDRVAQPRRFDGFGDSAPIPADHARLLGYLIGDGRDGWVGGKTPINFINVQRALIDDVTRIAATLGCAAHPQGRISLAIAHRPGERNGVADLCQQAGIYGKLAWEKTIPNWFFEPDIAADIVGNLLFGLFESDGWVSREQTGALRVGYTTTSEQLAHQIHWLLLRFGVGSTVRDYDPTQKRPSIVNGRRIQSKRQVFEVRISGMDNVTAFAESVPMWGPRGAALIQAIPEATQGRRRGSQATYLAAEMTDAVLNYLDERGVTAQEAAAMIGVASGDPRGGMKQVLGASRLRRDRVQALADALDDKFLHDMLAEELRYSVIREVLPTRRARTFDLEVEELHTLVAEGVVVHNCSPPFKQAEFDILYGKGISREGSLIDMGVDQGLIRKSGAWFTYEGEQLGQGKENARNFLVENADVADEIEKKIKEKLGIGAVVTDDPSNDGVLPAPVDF
Arbovirus anti repeat = also measured in Arbovirus anti; calls as there; inhibition, %; measured here: 10K subset replicate screen; many hits read low in the repeat;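 first of two repeat runs on a subset; 0% = infected and 100% = uninfected wells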
Active calls of the source: *; ? = inconclusive; · = not tested or not shown. A portion of the library. The share of hits here may be higher or lower than overall.

SMILES	Mtb growth	Arbovirus anti	Mtb betalactam	YopH inh	RecA intein inh	others
CC(=O)Nc1cccc(C(=O)Nc2cccc3ncccc23)c1	·	·	1	·	0.9
COc1ccc(C(=O)CC(=O)C(=O)Nc2cc(C)ccc2C)cc1	·	·	5	·	7.9
Cc1cc(S(=O)(=O)NC(C)C)ccc1OCC(=O)N1CCOCC1	2%	3	3	-2	-1.0
COCCN(C(=O)COC(=O)/C=C/c1nc2ccccc2s1)c1c(N)n(Cc2ccccc2)c(=O)[nH]c1=O	·	·	-6	·	2.0
CC(C)(C)n1nnnc1C(c1ccc(C#N)cc1)N1CCCC2(CCCCC2)C1 (stereo unspecified)	4%	2	14	-11	6.3
CCNC(=O)CC1C(=O)N(CC)C(=S)N1NC(=O)c1cccnc1 (stereo unspecified)	-3%	2	5	·	1.6
CCCOc1ccc(-c2c(C(=O)N/N=C/c3cccs3)nnn2-c2nonc2N)cc1	·	·	0	·	-1.5
CCCCc1nnc(NC(=O)CSc2nc(O)c(Cc3ccccc3)c(=O)[nH]2)s1	9%	5	-4	·	0.0
CCN(C(=O)COC(=O)c1ccc(COc2ccc3c(C)cc(=O)oc3c2)cc1)C1CCS(=O)(=O)C1 (stereo unspecified)	-1%	3	3	·	1.5
Cc1cc(C)n2nc(-c3ccsc3-n3c(C)ccc3C)cc2n1	-8%	-9	-1	-28	-3.1
CSc1nc2ccccc2c(=O)n1Cc1ccc(F)cc1	7%	0	-2	·	4.1
CC(C)CCNC(=S)Nc1ccc(Br)cc1	?	-23	92	-24	11
Cc1cc(C(=O)N/N=C/C=C/c2ccc([N+](=O)[O-])cc2)n[nH]1	-4%	5	-4	·	-0.6
CCCCCn1c(N2CCOCC2)nc2c1c(=O)n(CC(N)=O)c(=O)n2C	-5%	11	-8	-40	0.3
CCCc1cc(C(=O)N2CCCN(C)CC2)cs1	·	·	-12	·	-0.1
O=C(O)CCCCCn1c(SCC(=O)Nc2ccc(F)cc2)nc2ccsc2c1=O	4%	11	5	·	-0.8
COc1ccccc1NC(=O)Cn1nnc(-c2ccccc2NC(=O)c2cc3ccccc3oc2=O)n1	-2%	0	0	0	-1.1
O=C1NC(=O)C(=Cc2ccccc2OCCOc2ccc([N+](=O)[O-])cc2)C(=O)N1	-7%	-5	·	·	·
CCN(CCO)c1nc(SC)nc2c1sc1nc(-c3ccco3)c3c(c12)CCC3	-12%	-7	13	-10	19
Cc1cccc(CC2S/C(=N/N=C/c3ccco3)NC2=O)c1 (stereo unspecified)	10%	6	1	·	·
CC(=O)SC(C)CC(=O)NCc1ccccc1 (stereo unspecified)	-9%	-1	-5	-24	3.3
COc1ccc(CC(=O)NCC(C)(C)N2CCOCC2)cc1	·	·	-4	·	0.7
CC(=O)Nc1ccc(S(=O)(=O)N(C)c2ccc(OCC(=O)OCC(=O)NCc3ccco3)cc2)cc1	-8%	·	3	·	-0.2
COc1ccccc1CNC(=O)CN(C)S(=O)(=O)c1ccc2c(c1)n(C)c(=O)c(=O)n2C	·	·	5	·	-0.3
CCc1ccc(C2=Nn3c(nnc3-c3cccs3)SC2)cc1	14%	2	1	-51	1.4
SMILES	Mtb growth	Arbovirus anti	Mtb betalactam	YopH inh	RecA intein inh	others
Cc1cc(C)c2c(c1)/C(=N/NS(=O)(=O)c1ccccc1)CCC2	3%	2	-15	-18	2.7
O=C(NC1CCCC1)C(c1ccccc1F)N(C(=O)Cc1cccs1)c1ccc2c(c1)OCCO2 (stereo unspecified)	11%	-7	6	-31	9.7
CCC(=O)c1ccc(OCC(O)Cn2nnc3ccccc32)cc1 (stereo unspecified)	10%	0	-5	·	-2.3
CN(Cc1ccccc1)S(=O)(=O)c1ccc(OCC(=O)Nc2cccc([N+](=O)[O-])c2)cc1	8%	2	-2	-20	0.9
Cc1ccc2nc(NCC(=O)NN)nc(-c3ccccc3)c2c1	-3%	·	-3	·	-192
COc1ccc(-c2nc(CN3CCC(c4ccccc4)CC3)c(C)o2)cc1OC	-5%	2	32	·	0.5
Cc1ccc(NC(=O)CN(C)S(=O)(=O)c2cnc[nH]2)cc1C	-12%	-7	-1	-53	2.2
Nc1nc(SCC(=O)NCc2ccccc2)[nH]c(=O)c1NC(=O)c1ccccc1F	-1%	1	4	-32	-1.2
Cc1cccc(C)c1NC(=S)NCc1ccccc1	-6%	4	-6	·	-2.3
Cc1cccc(OCc2n(CC(=O)OC3CC(C)CCC3C(C)C)c3ccccc3[n+]2C)c1 (stereo unspecified)	?	-29	99	·	·
Cc1ccc(N2C(=O)C3C4C=CC(C4)C3C2=O)cc1 (stereo unspecified)	-5%	7	-12	-40	-1.3
Cc1ccccc1-n1c(=O)n(CCc2ccccc2)c(=O)c2[nH]cnc21	1%	·	3	·	2.8
CC(C)Cc1cc(C(=O)N2CCC(N3CCC(C(=O)N4CCOCC4)CC3)CC2)n[nH]1	-3%	1	-13	·	0.3
O=C(CCCc1nc2ccccc2s1)NC1CCOC1=O (stereo unspecified)	8%	14	2	·	-0.4
O=S1(=O)CC(O)C(Nc2ccccc2Cl)C1 (stereo unspecified)	-1%	4	-6	-17	-3.8
Cc1ccccc1-c1nnn(CC(=O)NCc2ccc3c(c2)OCO3)n1	0%	-2	-16	-48	7.8
CCOC(=O)c1ccc(CNC(=O)CSc2nnc(-c3ccncc3)o2)cc1	12%	6	-4	1	1.1
CCOC(=O)C(O)(C1C(=O)CC(C)(C)CC1=O)C(F)(F)F (stereo unspecified)	2%	3	0	-39	-1.8
O=C(Nc1ccccc1)N(Cc1cccnc1)Cc1ccco1	0%	5	-6	-32	-0.5
COc1ccc(N(C)C(=O)c2ccc3c(c2)nnn3C)cc1	-4%	-4	-4	·	0.4
CCCc1cc(C(=O)Nc2c(C)n(C)n(-c3ccccc3)c2=O)no1	-3%	8	5	-25	-0.1
CC(=O)Nc1c(C(=O)c2ccc(F)cc2)oc2ccccc12	1%	1	5	1	3.2	Arbovirus anti repeat=-3
Cc1ccc(-c2csc3ncnc(N4CCN(c5ccccc5O)CC4)c23)cc1	·	·	97	·	17
COc1ccc(CCNc2nc(=S)[nH]c3cc(OC)c(OC)cc23)cc1OC	-3%	-8	-2	·	0.1
CCCN1CCC[C@@H]2Cc3[nH]ncc3C[C@H]21	-6%	·	-5	·	-2.4
SMILES	Mtb growth	Arbovirus anti	Mtb betalactam	YopH inh	RecA intein inh	others
Cc1c(C(=O)Nc2ccc(C(=O)O)cc2)cnn1C	-4%	-2	-3	-23	-1.0
Cc1nnc(SCC(=O)N2CCN(Cc3ccccc3)CC2)s1	-6%	4	6	7	2.8
COC(=O)C1C(=O)C2=C(CC1C)NC(C)=C(C(=O)OC(C)C)C2c1ccc(C)o1 (stereo unspecified)	1%	-3	-16	6	2.8
COC(=O)CCCSc1nccn1-c1ccccc1	6%	2	3	·	0.8
COC(=O)c1ccc2c(c1)C(C)(C)C(/C=C/c1ccc(O)cc1)=[N+]2C	36%	-40	11	4	0.0
Cc1ccccc1-n1c(Cn2c(=O)sc3ccccc32)nnc1SC(C)C	-7%	23	5	-31	-1.0	Arbovirus anti repeat=4
CN(Cc1ccccc1)S(=O)(=O)c1ccc(Cl)c(C(=O)NCCc2ccccn2)c1	4%	4	-3	·	-2.1
C/C(=N\Nc1ccc(F)cc1F)c1ccc(F)cc1	?	0	62	-6	1.3
O=C(O)C1=C(Nc2ccccc2)OCC1=O	·	·	2	·	1.8
NC(=O)CSc1nc(C23CC4CC(CC(C4)C2)C3)nc2ccccc12	-8%	-29	2	·	8.0
CCOC(=O)C1=C(COC(=O)C2(C)CC2(Cl)Cl)NC(=O)NC1c1ccccc1 (stereo unspecified)	0%	1	-1	·	-2.7
CCOC(=O)C1(Cc2ccc(OC)cc2)CCN(C(=O)CCN2CCCC2=O)CC1	2%	2	0	·	-16
CCOc1ccc(-c2nc(S(=O)(=O)c3ccccc3)c(N3CCC(C(N)=O)CC3)o2)cc1	·	·	-11	·	2.5
CCCCn1c(=O)c(C(=O)Nc2ccsc2C(=O)OC)c(O)c2ccccc21	2%	-25	1	-21	-2.7
CC1CCC(NC(=O)CCS(=O)(=O)c2ccc3c(c2)NC(=O)CO3)CC1 (stereo unspecified)	·	·	1	·	-0.3
CC(C)(C)c1cc(NC(=O)c2cccc([N+](=O)[O-])c2)no1	5%	0	-8	·	-2.3
CSc1cnc2c(N)nc(N(C)C)nc2n1	5%	0	8	-12	-36
CCn1cc(CN2CCC(C(=O)Nc3ccc(Oc4cccnc4)cc3)CC2)cn1	·	·	?	·	-3.3
CCCCNC(=O)CCn1c(=O)c2ccccc2n(CC(=O)N2CC(C)CC(C)C2)c1=O (stereo unspecified)	0%	4	-6	-4	-1.0
Cc1ccccc1CC(=O)NC1CCN(Cc2ccccc2)CC1	·	·	1	·	1.1
CSCCC(NC(=O)/C(=C/c1ccco1)NC(=O)c1ccco1)C(=O)O (stereo unspecified)	·	·	-5	·	-3.8
Cc1ccc2cccc(OC(=O)N3CCCC3)c2n1	9%	4	11	-26	·
O=C(c1csc2c1CCCC2)N1CCCCC1	-8%	16	8	-34	-1.6	Arbovirus anti repeat=4
Cc1ccc(S(=O)(=O)N(CC(=O)O)Cc2ccccc2)cc1	-4%	0	-12	-39	·
COc1cc(CNCc2c[nH]c3ccccc23)cc(OC)c1	4%	0	-13	·	-0.7

Grouped by structure: those above with fluorine (seven)
SMILES	Mtb growth	Arbovirus anti	Mtb betalactam	YopH inh	RecA intein inh	others
CSc1nc2ccccc2c(=O)n1Cc1ccc(F)cc1	7%	0	-2	·	4.1
O=C(O)CCCCCn1c(SCC(=O)Nc2ccc(F)cc2)nc2ccsc2c1=O	4%	11	5	·	-0.8
O=C(NC1CCCC1)C(c1ccccc1F)N(C(=O)Cc1cccs1)c1ccc2c(c1)OCCO2 (stereo unspecified)	11%	-7	6	-31	9.7
Nc1nc(SCC(=O)NCc2ccccc2)[nH]c(=O)c1NC(=O)c1ccccc1F	-1%	1	4	-32	-1.2
CCOC(=O)C(O)(C1C(=O)CC(C)(C)CC1=O)C(F)(F)F (stereo unspecified)	2%	3	0	-39	-1.8
CC(=O)Nc1c(C(=O)c2ccc(F)cc2)oc2ccccc12	1%	1	5	1	3.2	Arbovirus anti repeat=-3
C/C(=N\Nc1ccc(F)cc1F)c1ccc(F)cc1	?	0	62	-6	1.3

(list continues)
SMILES	Mtb growth	Arbovirus anti	Mtb betalactam	YopH inh	RecA intein inh	others
COc1ccc(NC(=S)Nc2nc(CC(=O)Nc3ccccc3OC)cs2)cc1	-3%	21	14	-22	7.1
CN(C)CCCN(C(=O)c1ccc(S(=O)(=O)N2CCc3ccccc32)cc1)c1nc2ccc(Cl)cc2s1	·	·	-1	·	11
CN(C(=O)c1cc(COc2ccc(F)cc2Cl)on1)C1CCCc2ccccc21 (stereo unspecified)	·	·	0	·	-2.3
COc1cc2[nH]c3c(=O)n(CCN4CCCCC4)cnc3c2cc1OC	-2%	4	2	-16	-3.4
O=C(NC(=S)Nc1ccccc1C(=O)O)c1ccc2ccccc2c1	-2%	·	0	·	0.3
O=[N+]([O-])c1ccccc1Nc1ccc(O)cc1	63%	-16	-8	·	2.1
Cc1ccc(N2CC(=O)N(NC(=O)CN3CCN(c4ccccc4)CC3)CC2=O)cc1	-6%	·	1	·	1.0
COc1ccc(NCc2ccc(OC)c(OC)c2)cc1	85%	-13	98	-33	-3.9
CCOC(=O)c1sc(=NC(=O)c2ccc(C)cc2)n(C)c1C	-10%	-7	-2	·	1.7
CCOc1ccc(CC(=O)N2CCC3(CC2)NCCc2[nH]cnc23)cc1	·	·	7	·	-1.0
CCN1CCc2c(sc(NC(=O)Nc3ccc(Cl)c(Cl)c3)c2C(N)=O)C1	7%	-40	8	-7	·
Clc1cc(Cl)cc(C2=NC(Cc3ccccc3)CO2)c1 (stereo unspecified)	-7%	·	1	·	9.1
OC[C@@H](O)C1OC2NC(=S)OC2C1O (stereo partly specified)	3%	-1	-9	·	-6.0
Cc1ccc(-c2nnc(SCC(=O)NNC(=O)COc3ccccc3C)n2C)cc1	-11%	12	-8	-24	0.1
CC(C)OCCCNC(=O)c1ccc(Br)cc1	-2%	1	-5	24	5.3
Cc1ccc(-n2c(O)c(C=NC3CCS(=O)(=O)C3)c3ccccc3c2=O)cc1C (stereo unspecified)	-7%	-7	1	0	0.1
CC(C)c1ccc(/C=C/C(=O)Nc2nncs2)cc1	45%	1	4	-17	-1.4
O=[N+]([O-])c1ccc(N2CCN(S(=O)(=O)c3ccccc3[N+](=O)[O-])CC2)cc1N1CCc2ccccc2C1	3%	6	4	-11	-1.8
CCOC(=O)c1ccc(S(=O)(=O)NCCN2CCOCC2)cc1	0%	7	-5	·	-1.4

Compound activity (PubChem)
